Assay outcomes as filed in PubChem.
Beta apoptosis: inhibitors of cytokine-induced beta cell apoptosis, primary screen, luminescence. INS-1E cytokine-induced death, ATP luminescence, 48 h; percent of positive-control rescue, neutral wells zero. protection from apoptosis, % (concentration not given with the values). 0.8% of 300,000 active. AID 435005, 2010;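 active = all replicates at 75% or more, or half of them and the mean; inconclusive = half reach 75% but not the mean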;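 note: 0% = cytokine-treated negative control wells and 100% = positive control rescue; higher means more ATP so stronger rescue from cytokine killing; wells of about 40 µL received 100 nL stock; the first replicate is given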
T cruzi repl: inhibitors of intracellular T. cruzi growth, primary screen, luminescence, NIH3T3 host cells. AID 1885, 2009. T. cruzi beta-gal in NIH3T3, 90 h. inhibition, % (no concentration beside the values). 1.4% of 300,000 active;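 active = mean inhibition across valid replicates above about 55%, limit read from the data; inconclusive = mean below that limit but half or more replicates reach it; inactive = mean below it, under half of replicates reach it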;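 note: signal also drops with host cell toxicity which is not excluded here; 0% = plate median of DMSO wells and 100% = zero luminescence signal; higher percent means less beta-gal luminescence so fewer parasites; stock transfer was 50 nL into about 50 µL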
ALR H2O2 inh: inhibitors of human ALR sulfhydryl oxidase, primary screen, biochemical, H2O2 detection, HRP-luminol luminescence, single point; AID 485317, 2010; inhibition, % (concentration not given with the values); purified ALR, DTT oxidation; 3.8% of 290,000 active; FAD-linked sulfhydryl oxidase ALR (Homo sapiens), P55789;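 active = mean and each replicate at 75% or more; inconclusive = only one of the two met; inactive = neither met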;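 note: stock transfer was 7.5 nL into about 7.5 µL; 0% = neutral wells and 100% = wells with inactivated enzyme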
Target sequence (P55789 whole entry, looked up): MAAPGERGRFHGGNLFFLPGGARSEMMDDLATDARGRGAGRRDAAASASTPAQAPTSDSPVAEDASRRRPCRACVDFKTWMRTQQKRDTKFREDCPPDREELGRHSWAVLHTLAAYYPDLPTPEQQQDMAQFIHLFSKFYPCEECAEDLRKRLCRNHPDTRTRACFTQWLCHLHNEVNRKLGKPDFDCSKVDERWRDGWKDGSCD
Calb FLC: C. albicans growth inhibition with fluconazole, primary screen, CaCi-2 strain, Alamar Blue fluorescence; growth inhibition, % (concentration not given with the values); 0.57% of 300,000 active; C. albicans CaCi-2 (fluconazole-resistant clinical isolate) + fluconazole, 48 h;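 active = most replicates above 75%; inconclusive = exactly half above 75%; inactive = most below 75%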;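 note: all wells also contain fluconazole at 8 µg/ml as a sub-toxic cotreatment; 0% = median of DMSO wells and 100% = median of geldanamycin control wells; wells of about 8 µL received 7.5 nL stock; the first replicate is given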
RanGTP-Impb inh: inhibitors of RanGTP-importin-beta interaction, primary screen, biochemical, FRET, CFP-Ran, YFP-importin-beta, homogeneous | Ran GTPase (GTP-bound) - importin-beta complex | cell-free CFP-Ran/YFP-importin-beta FRET ratio | inhibition, % (no concentration beside the values) | 1.1% of 300,000 active;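 active = most replicates above 15%; inconclusive = exactly half above 15%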;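 note: 0% = DMSO wells and 100% = Ran loaded with GDP instead of GTP; wells of about 40 µL received 100 nL stock; the first replicate is given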
Ecoli rRNA inh: reduced GFP signal of wild-type E. coli, primary screen, bacterial rRNA inhibitor project, GFP/RFP fluorescence, OD600, single point; E. coli WT GFP vs humanized-ribosome RFP mutants, 24 h; active compounds read low; DMSO median 0, no signal -100; GFP signal change (wild-type ribosome), % (no concentration beside the values); 1.6% of 350,000 active;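 active = significant combined selectivity score with lowered wild-type GFP, culture density cut under 30%, mutant RFP and density less affected; inactive = any of these conditions unmet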; note: one replicate is shown; some compounds called inactive have numbers as strong as hits
MLL AF4-AF9 inh: inhibitors of AF4 peptide binding to AF9, primary screen, biochemical, AlphaScreen, biotin-AF4 peptide, FLAG-AF9, single point; Protein AF-9 (Homo sapiens), P42568; inhibition, % at 10 µM; 0.47% of 350,000 active;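 active = every replicate reaching a set inhibition limit, whatever the replicate mean, cut at about 25% in these data; inconclusive = mean inhibition reaches that limit but some replicates miss it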;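 note: 0% = plate neutral control median and 100% = total signal loss; the record names both 10 and 1 µM as test concentration; the first replicate is given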
Target sequence (P42568 whole entry, looked up): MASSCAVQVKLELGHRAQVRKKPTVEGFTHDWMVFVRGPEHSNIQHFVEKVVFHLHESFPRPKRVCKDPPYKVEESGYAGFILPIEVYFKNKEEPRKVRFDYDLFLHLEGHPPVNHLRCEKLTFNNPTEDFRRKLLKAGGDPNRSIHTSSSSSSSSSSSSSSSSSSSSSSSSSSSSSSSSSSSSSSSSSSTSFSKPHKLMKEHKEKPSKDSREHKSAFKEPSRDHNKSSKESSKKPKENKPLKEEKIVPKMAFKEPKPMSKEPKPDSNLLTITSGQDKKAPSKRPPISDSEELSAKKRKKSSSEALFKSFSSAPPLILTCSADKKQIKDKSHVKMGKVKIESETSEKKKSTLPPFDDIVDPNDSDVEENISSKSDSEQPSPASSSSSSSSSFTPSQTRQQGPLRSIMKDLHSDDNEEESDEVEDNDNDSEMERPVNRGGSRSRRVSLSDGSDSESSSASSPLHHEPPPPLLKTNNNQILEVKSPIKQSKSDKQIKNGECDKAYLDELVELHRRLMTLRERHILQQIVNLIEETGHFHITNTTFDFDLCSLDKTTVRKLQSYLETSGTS
FGF22 binding: binders of human FGF22 protein, primary screen, FGF22 synaptogenesis inhibitor project, biophysical, thermal shift, single point; AID 651658, 2012; 1.5% of 340,000 active; calls only at 9.99 µM; recombinant FGF22 thermal shift, SYPRO orange fluorescence; percent of sucrose octasulfate shift, DMSO zero; Fibroblast growth factor 22 (Homo sapiens), Q9HCT0;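 active = melting point raised past a set limit in the mean and every replicate; inconclusive = no clear call; three in four hits are not shown here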
Target sequence (Q9HCT0 whole entry, looked up): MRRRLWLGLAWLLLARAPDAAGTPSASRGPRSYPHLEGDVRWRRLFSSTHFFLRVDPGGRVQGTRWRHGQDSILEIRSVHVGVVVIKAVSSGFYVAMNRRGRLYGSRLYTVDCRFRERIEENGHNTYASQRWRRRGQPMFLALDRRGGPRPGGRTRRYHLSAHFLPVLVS
Ecoli rRNA inh OD600: also measured in Ecoli rRNA inh; calls as there; OD600 change, %; measured here: OD600 growth;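 optical density of the mix in the first replicate; 0 = DMSO median and -100 = no signal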
Ecoli rRNA inh RFP: also measured in Ecoli rRNA inh; calls as there; RFP signal change, %; measured here: RFP humanized mutant strains;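 first replicate; 0 = DMSO median and -100 = no signal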
Starred values were filed as active, the others as inactive; i = inactive; u = inconclusive; x = no result given.

| SMILES | Beta apoptosis | T cruzi repl | ALR H2O2 inh | Calb FLC | RanGTP-Impb inh | Ecoli rRNA inh | Ecoli rRNA inh OD600 | Ecoli rRNA inh RFP | MLL AF4-AF9 inh | FGF22 binding |
| --- | --- | --- | --- | --- | --- | --- | --- | --- | --- | --- |
| Oc1ccccc1Nc1nc(NCc2ccco2)c2ccccc2n1 | 18.4 | 15.4 | 15.1 | -3.7 | -1.3 | -56.3 | -83.0 | -28.6 | u | i |
| Cc1ccc(Cl)cc1NC(=O)COC(=O)CSc1ccccc1 | -1.7 | x | 2.8 | x | x | 13.0 | 10.8 | 1.5 | 0.9 | i |
| O=C(Nc1ccc(C(=O)N2CCCC2)cc1)c1cccc(C(F)(F)F)c1 | 0.2 | 1.5 | -2.4 | -5.5 | 1.6 | 8.0 | 6.3 | -0.2 | 1.0 | i |
| C=CCNc1nc2ccccc2c(=O)[nH]1 | -5.8 | -16.7 | -7.3 | 8.2 | 1.2 | 10.1 | 6.2 | -5.1 | -0.5 | x |
| COc1cc(NC(=O)c2sc3ncn(CC(=O)N4CCCCC4)c(=O)c3c2C)cc(OC)c1OC | -0.2 | -14.0 | -15.8 | -6.2 | 0.6 | -13.8 | -7.0 | -0.9 | 2.8 | i |
| COc1ccccc1N1CCN(C(=O)c2cccc(Oc3ccccc3)c2)CC1 | -2.5 | 8.2 | 4.0 | 7.9 | 3.3 | -45.3 | -69.2 | -24.5 | -0.2 | i |
| Cc1[nH]c2ccc(-c3nnc(SCC(=O)N4CCCc5ccccc54)o3)cc2c1C | 3.6 | 78.9* | -10.7 | 4.9 | 6.7 | 8.1 | 2.4 | 3.0 | -48.3 | i |
| COc1ccc(C(=O)/C(=C\c2sccc2C)c2nc3ccccc3o2)cc1 | -1.5 | 12.5 | -6.1 | -12.2 | 2.8 | x | x | x | x | x |
| C=CC(=O)NC(NC(=O)C=C)c1ccccc1F | -12.8 | -12.1 | 1.0 | 0.4 | -3.3 | 10.5 | -1.0 | 0.4 | 0.5 | i |
| COc1cccc(NC(=O)c2ccnc(N3CCC(C(=O)NCc4ccccc4OC)CC3)c2)c1 | -0.3 | -19.3 | 1.2 | 3.0 | 0.1 | 4.1 | 4.1 | -1.6 | -3.6 | i |
| O=C(/C=C/c1cccc([N+](=O)[O-])c1)c1cccs1 | 0.5 | -3.2 | 6.5 | -7.5 | -1.2 | -0.8 | -0.4 | -2.7 | -1.0 | i |
| CCc1ccc(NC(=O)c2ccc(F)c(S(=O)(=O)NCC3COc4ccccc4O3)c2)cc1 (stereo not drawn) | 32.9 | 6.9 | x | 4.1 | 8.1 | x | x | x | x | x |
| CCCCn1c(N)c(-c2nc3ccccc3s2)c2c([N+](=O)[O-])nn(C)c(=O)c21 | 14.9 | 9.4 | -11.4 | -5.6 | 0.0 | x | x | x | x | x |
| CC1(C)Cc2c(sc(NC(=O)C(=O)N3CCCC3)c2C(N)=O)CO1 | 1.6 | -18.5 | -8.1 | 26.3 | u | 3.3 | 8.7 | -1.9 | -2.7 | i |
| Cc1ccc(S(=O)(=O)N(Cc2cccc([N+](=O)[O-])c2)C(=O)N2CCN(C)CC2)cc1 | x | -12.4 | x | 12.2 | 7.6 | 3.0 | 8.1 | -1.4 | -0.5 | i |
| Cc1c(NS(C)(=O)=O)c(=O)n(-c2ccccc2)n1C | -4.4 | 0.5 | 5.3 | 11.2 | -6.1 | x | x | x | x | x |
| CCN(CC)Cc1c(O)ccc2c(=O)c(-c3ccc4c(c3)OCCO4)coc12 | -4.7 | 7.4 | 0.7 | 1.5 | 1.0 | x | x | x | x | x |
| CCOC(=O)Cc1csc(NC(=O)c2ccc3c(c2)OCO3)n1 | 0.1 | 4.9 | -2.9 | -6.9 | 2.3 | x | x | x | x | x |
| CCNC(=O)NC(=O)COC(=O)CCc1nc(=O)c2ccccc2n1C | -0.4 | 13.8 | -5.0 | -7.7 | 0.8 | 5.2 | 5.9 | -2.4 | -1.9 | i |
| O=C1C=C(c2ccc3c(c2)OCO3)C[C@@H](c2ccc(Cl)cc2)C1 | -8.2 | x | -1.0 | x | x | 19.7 | 12.6 | 5.9 | -46.0 | i |
| N#Cc1c(-c2ccccc2)nc2n(-c3ccccc3)nc(C(=O)Nc3ccccc3)n2c1=O | 2.6 | 31.9 | x | -2.7 | -0.4 | x | x | x | x | x |
| C=CCn1c(SCc2nc3c(c(=O)[nH]c(=O)n3CCCC)n2CCC)nnc1-c1ccccc1 | -2.7 | 23.4 | -3.0 | -2.5 | 9.6 | x | x | x | x | x |
| CC(C)c1ccccc1NC(=O)CNCCc1ccc(C(F)(F)F)cc1 | -19.1 | 19.1 | 3.2 | -1.3 | 1.5 | -42.0 | -71.5 | -17.7 | -0.5 | i |
| O=C(c1cc2ccccc2o1)N1CCN(Cc2ccccc2)CC1 | -5.0 | 6.3 | -3.5 | -8.3 | 1.4 | -10.6 | -11.9 | -1.7 | -4.0 | i |
| COCCCn1c(C(=O)N2CC(C)OC(C)C2)cc2c(=O)n3cccc(C)c3nc21 (stereo not drawn) | -2.9 | -35.2 | -0.2 | -2.7 | 2.2 | x | x | x | x | x |
| O=C(CC1C(=O)NCCN1Cc1ccccc1C(F)(F)F)NCCN1CCOCC1 (stereo not drawn) | -3.4 | 2.0 | -3.3 | 0.2 | -1.8 | 5.2 | 7.8 | -1.3 | -2.5 | i |
| C/C(=N\NC(=O)c1cc(-c2ccc(Cl)s2)[nH]n1)c1ccncc1 | 4.0 | 18.9 | -1.7 | 9.4 | 3.5 | -21.4* | -15.5* | -2.8* | 43.3* | i |
| COc1ccc(NC(=O)N/C=C/c2ccccc2)cc1 | -5.8 | -19.7 | -6.7 | -1.7 | -8.0 | -6.5 | 0.4 | -3.0 | -13.2 | i |
| CCCCOc1ccc(CN(C)c2ncnc(N)n2)cc1 | 1.2 | x | -1.0 | -0.4 | -1.1 | x | x | x | x | x |
| O=C(CSc1nc2ccccc2[nH]1)Nc1ccc(F)cc1 | 1.8 | 4.1 | 7.4 | -4.6 | -0.5 | -16.6 | -15.8 | 0.8 | 4.4 | i |

Just Beta apoptosis and RanGTP-Impb inh, for two of the compounds above:
SMILES | Beta apoptosis | RanGTP-Impb inh
Cc1c(NS(C)(=O)=O)c(=O)n(-c2ccccc2)n1C | -4.4 | -6.1
CCN(CC)Cc1c(O)ccc2c(=O)c(-c3ccc4c(c3)OCCO4)coc12 | -4.7 | 1.0

The listing continues:
| SMILES | Beta apoptosis | T cruzi repl | ALR H2O2 inh | Calb FLC | RanGTP-Impb inh | Ecoli rRNA inh | Ecoli rRNA inh OD600 | Ecoli rRNA inh RFP | MLL AF4-AF9 inh | FGF22 binding |
| --- | --- | --- | --- | --- | --- | --- | --- | --- | --- | --- |
| Cc1nnc(SCC(=O)Nc2cccc(S(=O)(=O)N(C)c3ccccc3)c2)s1 | 5.2 | 13.7 | 0.4 | -8.0 | -0.7 | -24.1 | -28.6 | 0.5 | 2.3 | i |
| COc1ccc(N2C(=O)CCC(C(=O)N3CCC(C(N)=O)CC3)C2c2ccc(F)cc2)cc1 (stereo not drawn) | 0.8 | -8.1 | -26.9 | -11.5 | 4.6 | x | x | x | x | x |
| CCOc1ccc(NC(=O)CCC(=O)NNC(=O)NC2CCCCC2)cc1 | -2.5 | 8.2 | 0.5 | -4.1 | -2.3 | 5.9 | 7.4 | -3.4 | -2.2 | i |
| Cc1c(C(=O)NCc2cccnc2)sc2nc(-c3ccccc3)cn12 | 8.0 | -21.8 | 90.0* | -6.0 | -1.6 | -16.5 | -33.8 | -4.1 | -4.6 | i |
| COc1ccc(/C=C/C(=O)O/N=C(\N)c2ccccn2)cc1OC | -1.7 | x | -2.2 | x | x | -12.7 | -2.2 | -1.4 | -2.2 | i |
| Cc1ccc2oc(C(=O)NCc3ccccc3)cc(=O)c2c1 | 2.8 | -0.5 | 1.8 | 3.8 | 1.7 | -7.5 | -1.7 | -0.2 | 0.1 | i |
| O=C(Nc1c[nH]c(=O)[nH]c1=O)c1ccc2c(c1)C(=O)N(c1cccc([N+](=O)[O-])c1)C2=O | x | -14.4 | x | -5.2 | 7.3 | 6.7 | 6.7 | -3.6 | -77.3 | i |
| Cc1sc2nc(SCC(=O)c3cc(C)n(CC4CCCO4)c3C)n(C(C)C)c(=O)c2c1C (stereo not drawn) | -6.4 | 40.1 | x | -5.4 | -5.5 | x | x | x | x | x |
| CC1OC2(OC1C)C(=O)Nc1ccccc12 (stereo not drawn) | -0.2 | 2.1 | -2.1 | -1.6 | 5.7 | x | x | x | x | x |
| NC(=O)c1ccc2c(c1)S(=O)(=O)c1ccccc1C2=O | 0.3 | 10.7 | 2.8 | -3.6 | 2.8 | 6.8 | 7.5 | -1.9 | 3.0 | i |
| CC1(C)CC(CC(=O)O)CC(C)(C)N1 | -10.9 | -18.3 | -9.0 | -2.2 | -0.5 | -3.0 | -2.8 | -2.8 | -1.8 | i |
| COc1ccc(CNC(=O)[C@@H](C)NC(=O)C2CCN(C(=O)[C@@H](N)CCSC)CC2)cc1 | -5.4 | -12.8 | -14.8 | -0.9 | -2.2 | x | x | x | -0.6 | i |
| Cc1ccsc1C(=O)Nc1ccc(S(=O)(=O)N2CCOCC2)cc1 | 3.4 | x | -3.4 | x | x | -1.8 | 7.4 | -3.2 | -3.8 | i |
| CCOc1ccc(OCC)c(S(=O)(=O)NCCOC23CC4CC(CC(C4)C2)C3)c1 | u | 20.8 | -46.6 | -0.2 | -2.1 | x | x | x | -5.9 | i |
| CCCc1nc(NCc2ccccn2)c2nnn(Cc3ccccc3F)c2n1 | 2.6 | 38.2 | 23.8 | 10.1 | u | x | x | x | x | x |
| COc1cc(NC(=O)CN2C(=O)NC(C)(c3ccc4ccccc4c3)C2=O)c(C)cc1[N+](=O)[O-] (stereo not drawn) | -4.1 | 15.4 | x | 11.8 | 6.3 | x | x | x | 2.2 | i |
| CCCC[C@H](CN(N=O)[C@@H](Cc1ccccc1)CN(C)N=O)N(CCc1ccccc1)N=O | 5.6 | 33.0 | -5.6 | 3.7 | 2.3 | 10.3 | 1.2 | -1.8 | 4.1 | i |
| Cn1nc(C(F)(F)F)c(C(=O)Nc2ccc(Cl)cc2)c1Cl | 3.0 | 15.3 | -16.6 | u | u | x | x | x | x | x |
| COc1ccc(NC2CCCN(C(=O)c3ccc4nc(C)c(C)nc4c3)C2)cc1OC (stereo not drawn) | 1.7 | 8.4 | 74.4 | u | 0.4 | 2.8 | 8.7 | -1.8 | -2.9 | i |
| CCCCCC(=O)NC(=S)Nc1ccc(N2CCOCC2)cc1 | -6.4 | 11.3 | 52.6 | -4.9 | -2.2 | -27.5* | -21.0* | -6.2* | 2.5 | i |

These rows are one share of the data; count on the stated rates, not on these rows.
